YopH PTP inh = YopH (Yersinia) phosphatase inhibition; fluorescence Ex485/Em525; inhibition, %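 (about 10 µM by stock and volumes)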; 0.16% of 140,000 active; AID 898;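 active = inhibition of 50% or more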;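 note: controls were vehicle for no effect and minimum signal wells for full effect; inactives centre near -20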
Mtb betalactam = beta-lactam sensitization of Mtb H37Rv. M. tuberculosis H37Rv growth with meropenem, percent inhibition; hits of this screen are not shown here. inhibition, % at 25 µM. 0.27% of 330,000 active. AID 434955;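 active = about 74% or more and at least 40 points above the plate without the antibiotic, then above 30% in a dose series; inconclusive = first-round hits that could not be retested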;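 note: growth measured after seven days incubation then overnight dye step; 0% = bacteria only wells and 100% = bacteria with antibiotic; twin plates without the antibiotic show which effects depend on it; some results filed as inactive read as strong as hits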
Arbovirus anti = antivirals against arbovirus infection | arbovirus infection cell-based antiviral screen | inhibition, % at 10 µM | 0.37% of 200,000 active;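 active = inhibition from about 30%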;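 note: bluetongue infection of BSR cells; cell survival read as ATP light after 72 h; 0% = infected wells without compound and 100% = uninfected wells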
RecA splice inh = blocks M. tuberculosis RecA intein splicing | cell-free RecA intein splicing, fluorescence | 0.75% of 290,000 active | inhibition, %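 (about 9 µM by stock and volumes)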 | P9WHJ3 | AID 2221; in the data active = inhibition above about 30%; inconclusive = no clear call, values can overlap the other calls;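 note: 0% = vehicle wells and 100% = reference inhibitor control wells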
Target sequence (P9WHJ3 whole entry, looked up, canonical isoform): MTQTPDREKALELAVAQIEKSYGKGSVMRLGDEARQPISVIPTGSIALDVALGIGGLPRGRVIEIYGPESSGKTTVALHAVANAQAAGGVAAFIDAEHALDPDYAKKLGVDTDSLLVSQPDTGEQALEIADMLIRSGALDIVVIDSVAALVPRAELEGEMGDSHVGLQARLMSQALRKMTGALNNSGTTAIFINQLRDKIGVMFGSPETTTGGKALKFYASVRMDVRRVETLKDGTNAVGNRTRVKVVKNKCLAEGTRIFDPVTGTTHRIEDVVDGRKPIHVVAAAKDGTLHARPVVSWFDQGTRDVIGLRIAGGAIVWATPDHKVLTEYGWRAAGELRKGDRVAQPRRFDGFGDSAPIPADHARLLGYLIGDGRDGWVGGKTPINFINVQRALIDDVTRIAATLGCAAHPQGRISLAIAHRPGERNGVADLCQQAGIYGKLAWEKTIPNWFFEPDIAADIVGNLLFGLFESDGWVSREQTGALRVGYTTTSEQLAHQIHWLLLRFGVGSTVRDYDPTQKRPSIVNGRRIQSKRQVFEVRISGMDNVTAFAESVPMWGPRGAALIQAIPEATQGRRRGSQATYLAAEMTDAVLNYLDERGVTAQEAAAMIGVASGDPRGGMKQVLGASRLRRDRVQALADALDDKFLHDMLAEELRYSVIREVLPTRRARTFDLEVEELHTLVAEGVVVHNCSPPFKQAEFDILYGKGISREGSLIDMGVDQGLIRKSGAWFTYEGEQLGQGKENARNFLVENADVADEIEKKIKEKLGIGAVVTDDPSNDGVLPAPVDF
Mtb H37Rv = M. tuberculosis H37Rv growth inhibitors, H37Rv strain (AID 1626); M. tuberculosis H37Rv growth inhibition; higher % means a stronger effect; inhibition, % at 10 µM, or IC50 in µM where a hit was titrated; 0.95% of 220,000 active;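 active = confirmed in a dose series; inconclusive = inhibition above 80% but not taken into the dose series; inactive = below 80% or under 30% at every dose of the series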;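 note: bacteria incubated seven days before Alamar blue readout; 0% = bacteria only wells and 100% = bacteria with antibiotic wells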
Arbovirus anti repeat = further read-out of Arbovirus anti, marked with its call; inhibition, %; measured here: 10K subset replicate screen; many hits read low in the repeat;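 first of two repeat runs on a subset; 0% = infected and 100% = uninfected wells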
Active calls of the source: *; ? = inconclusive; · = no result given; & = joins results of further samples.

SMILES	YopH PTP inh	Mtb betalactam	Arbovirus anti	RecA splice inh	Mtb H37Rv	others
Cc1nn(-c2ccccc2)c(Cl)c1/C=N/NC(=O)c1cccnc1	-12	8	-5	-1.2	2%
O=C(NC1(C(=O)NC2CCCCC2)CCCCC1)c1ccc2c(c1)OCO2	-22	-5	-3	0.9	5%	Arbovirus anti repeat=-3
CCOCN(C(=O)Cn1c(CO)nc2ccccc21)c1c(C)cccc1CC	-48	5	-1	0.3	-6%	Arbovirus anti repeat=2
CCN(CC)C(=O)c1ccc2c(c1)nnn2C	-24	1	-1	-0.2	0%
Cc1c(CN2CCN(c3cccc(C(F)(F)F)c3)CC2)c(=O)n(-c2ccccc2)n1C	-35	-5	1	-0.9	19%
O=C(COc1ccccc1F)N1CCc2ccccc2C1	·	0	-8	·	-5%
O=C(CNc1ccccc1)N/N=C/c1c(O)ccc2ccccc12	·	8	·	-1.7	·
COc1cc(Br)c(-c2sc(Nc3ccccc3)n[n+]2-c2ccccc2)cc1OC	·	-5	·	4.3	·
CCCCN(CCCNC(=O)c1c(C)cc(=O)oc1C)c1ccccc1	-45	-7	14	-0.9	4%
Cc1cc2nccc(-c3ccc(OCCCF)cc3)n2n1	·	7	·	-1.4	·
CC(C)C(=O)Nc1c2c(nn1-c1ccc(F)cc1)CSC2	·	3	·	0.9	·
Cc1cccc(OCC(=O)NNC(=O)c2cc3ccccc3oc2=O)c1	-31	98	-5	2.6	?
CCOc1ccccc1C(=O)Nc1cc2c(cc1N1CCCC1)n(CC)c(=O)n2CC	·	70	·	-6.2	·
CCOC(=O)c1c(NC(=O)COc2ccccc2)sc2c1CC(C)(C)NC2(C)C	·	83	21	-1.8	20µM*
COc1ccccc1NC(=O)c1sc2nc3n(c(=O)c2c1C)CCC3	·	9	·	-1.5	·
Cc1nn(-c2cccc(Cl)c2)c2c1C(c1cccnc1)C(C#N)=C(N)O2 (stereo unspecified)	1	5	-1	35*	-2%
COc1cccc(C(=O)Nc2ccc(NC(=O)Cc3ccccc3)cc2)c1	·	9	·	-4.8	·
COc1cccc(OC)c1OCCCOc1ccc(C)cc1Br	-41	10	0	8.2	9%
CCOc1ccc(C(=O)NCC(=O)OCCCOC(=O)CNC(=O)c2ccc(OCC)cc2)cc1	·	0	·	-0.1	·
Cc1ccc(S(=O)(=O)n2c([N+](=O)[O-])cnc2C)c(C)c1C	-24	-3	0	-1.0	3%
C=C1C(=O)O[C@H]2[C@H]1[C@H](OC(=O)CC(=O)O[C@@H]1C[C@@H](C)[C@@H]3C=CC(=O)[C@@]3(C)[C@H]3OC(=O)C(=C)[C@H]13)C[C@@H](C)[C@H]1C=CC(=O)[C@]12C	·	-3	·	-4.3	-8%
CCc1nn2c(=O)cc(COc3ccc(/C=C4\C(=N)N5N=C(CC(C)C)SC5=NC4=O)cc3)nc2s1	·	86	·	-3.1	?
C/C(CC(=O)NCc1ccco1)=N\NC(=O)CC#N	·	·	2	2.6	2%
O=C(NNc1ccc(Cl)cc1)c1cccs1	·	97	·	2.7	72%

Fetched one by one from above (two):
SMILES	YopH PTP inh	Mtb betalactam	Arbovirus anti	RecA splice inh	Mtb H37Rv	others
O=C(NNc1ccc(Cl)cc1)c1cccs1	·	97	·	2.7	72%
CCc1nn2c(=O)cc(COc3ccc(/C=C4\C(=N)N5N=C(CC(C)C)SC5=NC4=O)cc3)nc2s1	·	86	·	-3.1	?

Some of these compounds in order of heavy-atom count, low to high:
SMILES	YopH PTP inh	Mtb betalactam	Arbovirus anti	RecA splice inh	Mtb H37Rv	others
CCOC(=O)c1c(NC(=O)COc2ccccc2)sc2c1CC(C)(C)NC2(C)C	·	83	21	-1.8	20µM*
CCOc1ccccc1C(=O)Nc1cc2c(cc1N1CCCC1)n(CC)c(=O)n2CC	·	70	·	-6.2	·
CCc1nn2c(=O)cc(COc3ccc(/C=C4\C(=N)N5N=C(CC(C)C)SC5=NC4=O)cc3)nc2s1	·	86	·	-3.1	?

The results go on:
SMILES	YopH PTP inh	Mtb betalactam	Arbovirus anti	RecA splice inh	Mtb H37Rv	others
CCN(CC(=O)NCCCN1CCOCC1)S(=O)(=O)c1cc(Cl)ccc1Cl	·	-4	·	-3.2	·
Cc1cc(Br)ccc1NC(=O)c1ccc(-n2cncn2)c([N+](=O)[O-])c1	·	-11	·	-1.8	·
Cc1ccc(S(=O)(=O)NC2CCC(C(=O)O)CC2)cc1 (stereo unspecified)	-28	-5	3	0.2	-4%
Cc1nc(-c2ccccc2)nc(-c2ccccc2)n1	·	34	·	-1.9	·
O=C(c1cccs1)N1CCCC(c2nc3c(nnn3Cc3c(Cl)cccc3Cl)c(=O)[nH]2)C1 (stereo unspecified)	·	-1	·	4.4	·
c1ccc(CCN=C2CCCc3c2[nH]c2ccccc32)cc1	·	-10	·	1.7	1%
O=C(c1cccs1)N1CCN(S(=O)(=O)c2cccs2)CC1	·	-3	9	-0.1	5%
Clc1cccc(-c2ccc(C=Nc3ccc(N4CCOCC4)cc3)o2)c1Cl	·	·	-15	-1.9	-1%
CCOC(=O)c1c(Nc2ccccc2)sc(/C=C2\C=Nc3ccccc32)c1O	-22	-5	-13	0.1	-3%
CC(=O)NC(Cc1ccccc1)c1ccc2c(c1)OCCCO2 (stereo unspecified)	-18	-1	2	4.8	-7%
Cc1ccc(NC(=O)N2CCCC2C(=O)Nc2nnc(C(C)C)s2)cc1 (stereo unspecified)	·	4	·	-0.8	·
CN1CCN(c2ccc(CNC(=O)c3ccc4c(c3)OCCO4)cc2)CC1	·	-7	·	0.2	-18%

At a glance, two of the compounds above.
SMILES	YopH PTP inh	Mtb betalactam	Arbovirus anti	RecA splice inh	Mtb H37Rv	others
Cc1ccc(NC(=O)N2CCCC2C(=O)Nc2nnc(C(C)C)s2)cc1 (stereo unspecified)	·	4	·	-0.8	·
CN1CCN(c2ccc(CNC(=O)c3ccc4c(c3)OCCO4)cc2)CC1	·	-7	·	0.2	-18%

(continued)
SMILES	YopH PTP inh	Mtb betalactam	Arbovirus anti	RecA splice inh	Mtb H37Rv	others
CN(C)C(=O)c1cc(C(=O)c2ccc(Cl)cc2Cl)c[nH]1	·	-2	·	-1.6	·
Cc1cc(C(=O)NCCC(c2ccccc2)c2ccccc2)c(C)o1	-14	5	-6	2.7	-4%
O=C(NC(=S)NCCN1CCOCC1)c1ccccc1Cl	-22	-4	6	0.1	-9%
CCOC(=O)CN(C(=O)CSc1nnc(C)n1-c1ccccc1)c1ccccc1	-19	-2	4	0.3	-6%
O=C(c1cc2ccccc2oc1=O)N1CCOCC1	·	-3	·	0.5	-1%
COc1ccc(CCN(C)C(=O)C2CCN(Cc3ccccc3)CC2)cc1OC	·	-2	-6	2.4	0%
O=C(NCc1ccccc1)C1=C[C@@H](c2ccccc2)C[C@@H](OCCCCO)O1	·	-1	·	2.7	-3%
CS(=O)(=O)N1CCC(C(=O)Nc2ccc(F)cc2F)CC1	-23	-4	-1	-0.2	-3%
Cc1cccc(NCN2C(=O)c3ccncc3C2=O)n1	27	?	-3	-2.2	0%
O=C(NCCCl)Nc1cccnc1Cl	·	0	11	-1.3	-5%
Cc1ccc(S(=O)(=O)N2CCN(CC(=O)N/N=C\C(Cl)=C\c3ccccc3)CC2)cc1	-6	-1	4	-3.9	1%
COC(=O)c1cccc(NC(=O)COC(=O)CSc2nc(C)cc(C)n2)c1	-28	7	14	-0.8	0%
COc1cc(NC(=O)CCC(=O)O)nc(OC)n1	-15	-2	11	-1.5	-5%
CCN(C(=O)COc1cc(=O)n(CC)c2ccccc12)c1cccc(Cl)c1	-28	29	-8	1.3	2%
Cc1c(C)n(C(=O)CSc2ncn[nH]2)c2ccccc12	-21	3	9	-0.7	-3%
O=C(NC(=S)N1CCN(c2ccc([N+](=O)[O-])cc2)CC1)c1ccccc1Cl	·	2	-5	-1.2	-3%
COCC(C)n1c(=O)sc2ccccc2c1=O (stereo unspecified)	·	-2	-1	-1.7	-3%
COC(=O)c1ccc(CN2CCC(n3nccc3NC(=O)C3CCCC3)CC2)cc1	·	8	·	0.5	·
CCOC(=O)Cn1c(S(=O)(=O)Cc2ccc(F)cc2)nc(-c2ccccc2)c1-c1ccccc1	-32	-17	14	1.2	1%
O=C(NCCc1c[nH]c2ccccc12)/C(=C/c1cccnc1)NC(=O)c1cccs1	·	13	-8	0.6	0%
CCOC(=O)C1=C(COC(=O)COc2ccccc2C#N)NC(=O)NC1C (stereo unspecified)	·	-2	·	-2.0	·
COc1cccc(-c2nc3ccccc3s2)c1	-4	-10	3	4.5	8%
Oc1ccc2c3c1OC1C(O)CC[C@@]4(O)[C@@H](C2)N(CC2CCC2)CC[C@]314 (stereo partly specified)	·	3	-4	-3.1	-9%&-1%
O=C(CSc1ccc2nnc(CCNC(=O)c3ccccc3)n2n1)NC1CCCC1	·	-7	·	0.2	·

The list goes on (2 carried over from the part before).
SMILES	YopH PTP inh	Mtb betalactam	Arbovirus anti	RecA splice inh	Mtb H37Rv	others
Oc1ccc2c3c1OC1C(O)CC[C@@]4(O)[C@@H](C2)N(CC2CCC2)CC[C@]314 (stereo partly specified)	·	3	-4	-3.1	-9%&-1%
O=C(CSc1ccc2nnc(CCNC(=O)c3ccccc3)n2n1)NC1CCCC1	·	-7	·	0.2	·
COc1ccc(CNC(=O)C2CCCN2S(=O)(=O)c2ccc(S(=O)(=O)N(C)C)cc2)cc1 (stereo unspecified)	-28	3	1	·	-9%
Nc1n[nH]c2c1C1(CCCCC1)Cc1ccccc1-2	-34	?	12	8.1	-1%
Cc1cc(=O)oc2cc(NC(=O)c3cccc(F)c3)ccc12	·	-7	·	-0.4	·
CCCCOC(=O)c1ccc(NC(=S)N2CCN(c3ncc4c(=O)c(C(=O)O)cn(CC)c4n3)CC2)cc1	·	78	·	-0.7	56%
Cc1nnc(SCC(=O)Nc2ccccc2)c2ccccc12	·	2	·	4.9	·
CCOC(=O)c1c(C)[nH]c(C)c1C(=O)CSc1nnc(-c2ccco2)n1Cc1ccccc1	-15	-2	1	3.0	-6%
COc1ccccc1CCC(=O)Nc1cc(S(=O)(=O)N2CCOCC2)ccc1N1CCCC1	·	-6	·	2.2	·
O=C(NCCC1=CCCCC1)C1CCC(CNS(=O)(=O)c2ccccc2)CC1 (stereo unspecified)	-22	-1	-6	-0.7	12%
COC(=O)CC(NS(=O)(=O)c1cccs1)c1cccc2ccccc12 (stereo unspecified)	-31	-1	8	4.5	-16%
COc1ccc(/C=C2\CCCc3c2nc2ccccc2c3C(=O)OCC(=O)c2c(N)n(C)c(=O)n(C)c2=O)cc1	-15	-2	-24	-10	65%
COc1ccccc1NC(=O)CCC(=O)O	-2	-17	7	-14	-5%
CC(Oc1cccc(NC(=O)c2cccs2)c1)C(=O)c1ccccc1 (stereo unspecified)	·	0	-4	3.5	11%
CC(=O)n1nc(-c2cccc(C)c2)nc1SCC(=O)Nc1ccccc1	-26	3	13	14	-5%
CC1CC(=O)c2cnc(NCc3ccco3)nc2C1 (stereo unspecified)	-52	-6	4	0.4	6%
CCOC(=O)c1ccc(-c2c(-c3ccc4c(c3)OCO4)noc2C)cc1F	·	94	·	6.2	·
COc1ccc(N(CC(=O)N/N=C/c2ccc(OC)c(OC)c2)S(=O)(=O)c2ccccc2)cc1	·	1	·	1.4	·
Cc1cccc(OCCCC(=O)Nc2ccc(S(N)(=O)=O)cc2)c1C	-28	5	7	3.0	-1%
CN(C(=O)CSc1nnc(-c2cccnc2)n1-c1ccccc1F)C1CCS(=O)(=O)C1 (stereo unspecified)	·	-6	-2	-1.2	-3%
NC(=O)CSc1nnc(Cc2ccc3c(c2)OCO3)o1	·	4	1	-6.5	1%
COc1ccc(NC(=O)c2cccnc2SC)cc1S(=O)(=O)N1CCCCC1	-39	4	2	2.2	-1%

Only part of the results is shown; rates above refer to the full screens.
